Screens from PubChem BioAssay.
RGS16-Gao HTS = modulates binding between human RGS16 and Galphao. O15492+P09471. bead-based flow cytometry RGS16-Galphao binding, fluorescence; actives lie on both sides. binding response (% of control), % at 10 µM. 0.38% of 220,000 active. AID 1441;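 active = below 25% or above 175%, edge rows of some plates excepted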;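 also: Galphao activated by GDP with aluminum fluoride before binding; 100% = wells without compound and 0% = beads without RGS; some results beyond the cut were filed as inactive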
HSV replic up = increases HSV replication in cells. HSV replication augmentation in cells, fold increase. maximum fold increase. 0.005% of 220,000 active;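 active = peak rise of 1.5-fold or more in the series; inconclusive = self-fluorescent or not available for retest; tested in PC3 cells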;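 also: first round at 10 µM; read as green reporter fluorescence; hits show the peak of a series up to 25 µM; 1 = signal of infected wells without compound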
PKD1 inh = PKD1 (human) kinase inhibition; Q15139; PKD1 kinase fluorescence polarization assay; inhibition, %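 (about 10 µM by stock and volumes)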; 0.056% of 200,000 active;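 active = inhibition of 50% or more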;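 also: controls were vehicle for no effect and a reference inhibitor for full effect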
Target sequence (Q15139 whole entry, looked up): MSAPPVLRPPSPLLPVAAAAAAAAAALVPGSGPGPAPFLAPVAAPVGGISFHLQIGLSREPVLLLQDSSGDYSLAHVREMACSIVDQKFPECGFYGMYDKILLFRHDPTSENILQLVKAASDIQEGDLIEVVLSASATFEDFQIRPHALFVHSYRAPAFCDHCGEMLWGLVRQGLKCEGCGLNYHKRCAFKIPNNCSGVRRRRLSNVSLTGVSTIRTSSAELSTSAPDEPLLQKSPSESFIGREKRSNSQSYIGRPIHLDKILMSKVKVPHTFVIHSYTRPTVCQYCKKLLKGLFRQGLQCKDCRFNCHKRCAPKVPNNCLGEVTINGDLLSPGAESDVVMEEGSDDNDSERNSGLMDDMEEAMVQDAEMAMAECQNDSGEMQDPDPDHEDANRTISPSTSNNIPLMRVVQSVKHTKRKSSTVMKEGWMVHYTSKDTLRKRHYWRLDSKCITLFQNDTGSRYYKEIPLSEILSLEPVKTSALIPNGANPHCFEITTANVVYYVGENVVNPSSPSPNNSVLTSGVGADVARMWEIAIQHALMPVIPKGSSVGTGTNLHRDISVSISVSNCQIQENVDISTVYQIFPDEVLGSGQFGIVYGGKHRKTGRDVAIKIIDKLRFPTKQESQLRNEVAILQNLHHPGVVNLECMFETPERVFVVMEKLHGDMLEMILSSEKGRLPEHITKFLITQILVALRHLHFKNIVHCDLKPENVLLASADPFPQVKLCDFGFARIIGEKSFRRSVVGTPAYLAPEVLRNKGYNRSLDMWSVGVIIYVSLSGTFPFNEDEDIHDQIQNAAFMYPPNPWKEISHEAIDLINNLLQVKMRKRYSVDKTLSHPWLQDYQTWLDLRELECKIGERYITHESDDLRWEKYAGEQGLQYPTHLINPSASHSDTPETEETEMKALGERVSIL
GALR2 ag = agonists of human galanin receptor 2 (GALR2); O43603; GALR2-expressing cells, agonist activation read-out; activation, %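 (tested at 5 µM)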; 0.48% of 140,000 active; AID 803;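 active = above mean plus 3 SD of all compounds, about 5% in these data, not always enough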;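 also: 0% = vehicle buffer wells and 100% = reference agonist at full effect; tested in CHO reporter cells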
INS promoter inh = TRM-6 insulin promoter activity inhibition; TRM-6 cells (human fetal islet line), insulin promoter-eGFP reporter, imaging; reporter expression induced with tamoxifen; inhibition, % at 2 µM; 0.9% of 130,000 active; AID 1273;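 active = inhibition above the mean plus 3 SD, with well images judged a real hit on visual review, cut at about 60% in these data, passing the limit was not always enough; inconclusive = inhibition over the cutoff but images rejected on review; inactive = inhibition not above the cutoff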
INS promoter inh cell count = second read-out of INS promoter inh, no call of its own (marks repeat the call); normalized cell count, %; measured here: cell count, toxicity; reference of the scale not given here;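 cells exposed to compound for 48 h; stained nuclei by imaging scaled within each plate; lower means fewer cells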
HSV replic up primary fold = recorded beside HSV replic up, whose call it bears; fold increase; compound at 10 µM; measured here: primary screen fold increase 10 uM; tested in PC3 cells;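 GFP signal in the first replicate; 1 = infected wells without compound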
Numbers without * were called inactive; i = inactive; ? = inconclusive; / = not tested or not shown.

Value order: RGS16-Gao HTS	HSV replic up	HSV replic up primary fold	PKD1 inh	GALR2 ag	INS promoter inh	INS promoter inh cell count
- CCCC12CN3CC(C)(CN(C1)C3c1ccc3c(c1)OCO3)C2=O (stereo unspecified)
  103	i	0.91	-3	-1.3	-129	98
- COC(=O)C1=C(C)NC(C)=C(C(=O)OC)C1C(=O)OC1CCCCC1=O (stereo unspecified)
  99	i	1	-4	0.7	18	122
- COC1=C(Nc2ccccc2)C(=O)c2ccccc2C1=O
  73	i	1.1	-6	-1.0	65	53
- O=[N+]([O-])c1ccccc1-c1cc(-c2ccccc2O)n[nH]1
  123	i	0.85	12	-1.2	-34	83
- O=c1cc(-c2ccccc2)nc2nc(COc3ccccc3)[nH]n12
  104	i	0.93	-3	-0.4	1	184
- C=CCN1C(=O)C(CC(=O)Nc2ccccc2F)S/C1=N\c1nccs1 (stereo unspecified)
  95	i	0.89	/	/	/	/
- O=[N+]([O-])c1ccc(NCCNS(=O)(=O)c2ccccc2)cc1
  112	i	1.1	4	/	/	/
- COc1ccc(S(=O)(=O)Nc2ccc(S(=O)(=O)N3CCCC3)cc2)cc1
  96	i	0.97	3	-1.9	-25	121
- CC(c1ccccc1)C1OCC(C[N+]2(C)CCCCC2)O1 (stereo unspecified)
  56	i	0.97	1	/	25	107
- NC(=O)NC(CC(=O)NCCc1ccc(S(N)(=O)=O)cc1)c1ccc(Cl)cc1 (stereo unspecified)
  101	i	1.2	/	/	/	/
- C/C(CC1CC(COCCC(C)C)OC1=O)=N\NC(N)=S (stereo unspecified)
  102	i	1.1	1	-0.3	7	65
- Cc1cccc(CC2CC(=O)N(C3CCCCC3)C2=O)c1 (stereo unspecified)
  101	i	0.99	5	-2.1	-50	96
- O=C(Nc1nc(-c2ccc(-c3ccccc3)cc2)cs1)c1cnccn1
  110	i	0.97	-12	-0.4	41	78
- C/C(Cn1nnc2ccccc21)=N/OC(=O)c1c(F)cccc1F
  97	i	0.79	3	/	-38	115
- CCN(CC)C(=O)Oc1ccc(OC(=O)N(CC)CC)cc1
  100	i	0.86	-5	/	/	/

The list goes on; it opens with the three that closed the last part.
Value order: RGS16-Gao HTS	HSV replic up	HSV replic up primary fold	PKD1 inh	GALR2 ag	INS promoter inh	INS promoter inh cell count
- O=C(Nc1nc(-c2ccc(-c3ccccc3)cc2)cs1)c1cnccn1
  110	i	0.97	-12	-0.4	41	78
- C/C(Cn1nnc2ccccc21)=N/OC(=O)c1c(F)cccc1F
  97	i	0.79	3	/	-38	115
- CCN(CC)C(=O)Oc1ccc(OC(=O)N(CC)CC)cc1
  100	i	0.86	-5	/	/	/
- Cc1ccc(-n2ncc3c(=O)n(CC(=O)NCC4CCCO4)cnc32)cc1 (stereo unspecified)
  101	i	1	-5	-1.8	/	/
- CCN(CC)S(=O)(=O)c1ccc(NN)nc1
  99	i	0.99	-3	/	67	170
- CNCc1ccccc1OCc1ccccc1F
  98	i	0.72	5	/	/	/
- CCOC(=O)N1CCC(N2C(=O)c3cc(C(=O)NC4CCCCC4)ccc3C2O)CC1 (stereo unspecified)
  103	i	0.94	-4	-3.6	/	/
- Cc1cc(C)c(S(=O)(=O)c2ccccc2)c(OC(=O)c2c(Cl)cc(Cl)cc2Cl)n1
  104	i	0.99	8	0.7	-26	110
- CCN(CC)C(=O)C1CCCN(Cc2ccc(OC)c(C)c2C)C1 (stereo unspecified)
  105	i	0.81	-6	-1.1	-21	138
- CN(Cc1nc(-c2ccncc2)no1)S(=O)(=O)c1ccc(Br)cc1
  102	i	1.1	-6	-2.8	18	165
- CCOC(=O)CC(=O)CSc1nc(C)cc(C)c1C#N
  100	i	1	-3	7.2*	16	140
- CCCCOCCCNC(=O)N[C@@H](CC(C)C)C(=O)O
  101	i	0.9	-1	-4.1	/	/
- COc1cccc(CN2CCCN(S(=O)(=O)c3ccc(Br)cc3)CC2)c1
  98	i	1	-3	-1.4	27	116
- O=C(Nc1ccc2nc(-c3ccc(Br)o3)[nH]c2c1)c1cccs1
  87	i	0.74	0	-0.8	/	/
- Cn1nnnc1SCC(=O)Nc1nn(-c2ccccc2)nc1C(N)=O
  101	i	0.92	-2	/	-14	46
- Cc1c(-n2c(SC(C)C(=O)NC(N)=O)nc3ccccc3c2=O)c(=O)n(-c2ccccc2)n1C (stereo unspecified)
  102	i	0.85	6	/	/	/
- CCn1c(CSc2nc3ccccc3s2)nnc1SCC(=O)NCC(=O)OC
  102	i	0.85	-5	-1.2	11	99
- COc1ccc(/C=C/C(=O)OCC(=O)Nc2cccc(C(C)=O)c2)cc1
  93	i	1	-11	-0.8	-13	75
- Cc1ccc(-n2c(N)c(C(N)=O)sc2=S)cc1
  72	i	0.94	1	-1.9	62	67
- CCNc1nc2nc3ccc(C)cn3c(=O)c2cc1C(=O)NCC1CCCO1 (stereo unspecified)
  109	i	0.95	-4	/	/	/
- COc1ccc(CNCCC(c2ccccc2)c2ccc3c(c2)OCO3)cc1 (stereo unspecified)
  91	/	/	-5	-2.0	-50	96
- Cc1ccc(S(=O)(=O)Nc2cc(C(F)(F)F)ccc2N2CCOCC2)cc1
  109	i	0.64	-2	-1.3	41	90
- NC(=O)C1CCN(c2ccc(C(F)(F)F)cn2)CC1
  102	i	1	1	/	19	93
- O=C(CCC1CCCC1)N1CCN(C(=O)c2cccnc2)CC1
  103	i	0.9	-10	-1.9	-43	127
- O=C1CCC(=O)N1CCCCCc1nc(-c2ccccc2)no1
  99	i	0.98	-9	-2.2	38	115
- COc1ccc(N(C)C(=O)c2cc3c(s2)-c2ccccc2S(=O)(=O)C3)cc1
  102	i	0.98	/	/	/	/
- COCCn1c(N)c(N(Cc2ccccc2)C(=O)C2CCCCC2)c(=O)[nH]c1=O
  98	i	0.89	-6	/	/	/
- COC(=O)CN(c1ccccc1F)S(=O)(=O)c1ccccc1
  115	i	0.89	3	-0.9	30	78
- CCN(CC1COc2ccccc2O1)C(=S)NCCCN(C)C (stereo unspecified)
  93	i	0.96	-1	/	/	/
- CCSc1nnc(NC(=O)c2cc(C)nc3ccccc23)s1
  101	i	0.94	-8	-0.9	-26	106
- COc1cccc(C(=O)c2c[nH]c(C(=O)NCc3cccnc3)c2)c1
  99	i	0.88	-2	/	/	/
- O=C(O)/C=C/C(=O)Nc1ccc(OC(F)(F)F)cc1Br
  98	i	1	/	/	/	/
- O=C(CSc1nnc(SCc2ccccc2)s1)N/N=C/C=C/c1ccco1
  98	/	/	-1	-2.8	/	/

Remaining list, next part:
SMILES	RGS16-Gao HTS	HSV replic up	HSV replic up primary fold	PKD1 inh	GALR2 ag	INS promoter inh	INS promoter inh cell count
COc1cccc(OC)c1OCCNC(C)(C)C	110	i	0.92	-8	-1.2	/	/
CC(C)(C)OC(=O)N1CCC[C@H]1c1nnc(SC/C=C/c2ccccc2)o1	94	i	1	6	-0.8	-24	43
COc1ccc(NC(=O)CN(C)CC(=O)Nc2ccc(N3CCOCC3)cc2)c([N+](=O)[O-])c1	100	i	0.88	-4	/	50	84
COc1cc(C(C)=O)ccc1OCCN1CCC(Cc2ccccc2)CC1	100	i	0.92	0	/	/	/
N/C(=N\OC(=O)c1cccc([N+](=O)[O-])c1)c1ccccn1	120	i	0.91	-2	/	19	123
O=C(Cc1cccs1)NC1CCCC1	98	i	0.95	3	/	/	/
Cc1ccc2nc(-c3cccnc3)c(Nc3ccccc3C)n2c1	99	i	1.1	-5	/	-132	59
CCn1c(SCC(=O)N2CCCc3ccccc32)nc2c1c(=O)n(C)c(=O)n2C	102	i	0.92	-1	0.9	-16	78
S=c1[nH]nc(-c2ccc(Cl)cc2)n1/N=C/c1cccs1	102	i	0.9	/	/	/	/
Cc1nnc(NC(=O)c2ccccc2NC(=O)c2ccccc2)s1	101	i	1.3	/	/	/	/
CCN(C(=O)COC(=O)c1cc(-c2cccc3ccccc23)nc2ccccc12)C1CCS(=O)(=O)C1 (stereo unspecified)	101	i	1.2	3	-0.5	-60	94
CCOc1ccc(C2CC(c3ccccc3C)n3ncnc3N2)cc1 (stereo unspecified)	103	i	0.82	-11	-1.5	/	/
COc1ccccc1C(=O)Nc1nc2nc(-c3ccccc3)cc(=O)n2[nH]1	105	i	0.98	-3	-2.0	33	118
CCC(=O)Nc1c(C(=O)Nc2cccc(OC)c2)oc2ccccc12	87	i	0.84	-15	-2.6	-31	123
COC(=O)c1cc(=O)cc(C(=O)OC)o1	93	i	0.8	0	-2.3	0	78
CCC(=O)Nc1ccc(C(=O)Nc2cccnc2)cc1	107	i	1.1	-4	-1.9	59	118
Cc1cc(C)nc(Nc2ncc(O)n2-c2ccc(Br)cc2)n1	99	i	1.5	6	/	/	/
O=c1[nH]c2ccc(S(=O)(=O)NCc3ccccc3)cc2[nH]1	105	i	0.9	1	/	/	/
O=C(Nc1ccc(F)cc1F)N1CCCN(CCOc2ccccc2)CC1	95	i	0.83	/	/	/	/
O=C(c1ccco1)N1CCN(/C(=N/S(=O)(=O)c2cccs2)c2ccccc2Cl)CC1	100	i	0.92	-4	-0.4	28	51
O=C(Nc1ccc2nc(SCc3ccc(Cl)cc3)sc2c1)c1ccccc1C(=O)N1CCOCC1	99	i	1	1	-1.9	/	/
Cc1nc(SCC(=O)N2CCN(c3ccccc3)CC2)c2oc3ccccc3c2n1	102	i	0.95	6	-1.7	-28	142
Cc1ccc(Nc2nc3ccccc3s2)c(C)c1	102	i	0.99	-9	-1.3	34	85
COc1cccc(N2CC(C(=O)Nc3nnc(SCc4cccnc4)s3)CC2=O)c1 (stereo unspecified)	97	i	0.99	10	-0.9	/	/
COc1nnc(-c2ccc(N3CCOCC3)c(NC(=O)c3ccccc3)c2)c2ccccc12	89	i	0.77	-2	-1.4	-19	70
Cc1oc(-c2cccc(Cl)c2)nc1CSc1nc2c(c(=O)[nH]1)CCC2	141	i	0.84	-1	-0.2	2	101
COc1cccc(C2CC(C(F)(F)F)n3nc(C(=O)NCc4cccnc4)cc3N2)c1 (stereo unspecified)	98	i	0.89	-10	-0.3	0	117
O=C(OCC#CCSc1nnc(-c2cccc3ccccc23)o1)c1ccco1	115	i	0.95	-10	-1.6	31	150
CCC1Oc2ccccc2N(CC(=O)NCc2cccs2)C1=O (stereo unspecified)	104	i	0.98	0	/	/	/
CCc1nnc(NC(=O)Cc2cc(OC)c(OC)c(OC)c2)s1	103	i	1.1	-6	/	44	67
CC[N+]1(CC)CC2CCC(C)(C1)C2(C)C (stereo unspecified)	101	i	0.92	-10	/	14	111
COc1cccc(NC(=O)Cn2c3ccccc3c3nc4n(c(=O)c32)CCS4)c1	198	i	0.89	-2	/	21	54
COc1ccc(OC)c(NC(=O)C2=C(C)Nc3ncnn3C2c2cccs2)c1 (stereo unspecified)	103	i	0.98	4	-0.9	/	/
COc1ccccc1NC(=O)Cc1noc(CSc2cccc[n+]2[O-])n1	97	i	1.1	-8	-1.5	-2	134
Cc1nonc1CN(C)C(=O)CC1C(=O)NCCN1Cc1c(F)cccc1Cl (stereo unspecified)	91	?	/	4	/	/	/
CCN(CC)S(=O)(=O)c1cccc(NC(=O)COC(=O)/C=C/c2ccco2)c1	103	i	1.1	-8	-1.3	9	146

Sorted by the number under RGS16-Gao HTS (low to high): three of the compounds above.
SMILES	RGS16-Gao HTS	HSV replic up	HSV replic up primary fold	PKD1 inh	GALR2 ag
COc1cccc(N2CC(C(=O)Nc3nnc(SCc4cccnc4)s3)CC2=O)c1 (stereo unspecified)	97	i	0.99	10	-0.9
CC[N+]1(CC)CC2CCC(C)(C1)C2(C)C (stereo unspecified)	101	i	0.92	-10	/
COc1ccc(OC)c(NC(=O)C2=C(C)Nc3ncnn3C2c2cccs2)c1 (stereo unspecified)	103	i	0.98	4	-0.9

The order is random. Share with any hit: about 1.3%.
